ALR inh = blocks human ALR sulfhydryl oxidase activity; AID 485317; 3.8% of 290,000 active; purified ALR, DTT oxidation, H2O2 HRP-luminol luminescence; inhibition, % (concentration not given with the values); P55789;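 active means mean and each replicate at 75% or more; inconclusive means only one of the two met; inactive means neither met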;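 further: stock transfer was 7.5 nL into about 7.5 µL; 0% = neutral wells and 100% = wells with inactivated enzyme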
Target sequence (P55789 whole entry, looked up): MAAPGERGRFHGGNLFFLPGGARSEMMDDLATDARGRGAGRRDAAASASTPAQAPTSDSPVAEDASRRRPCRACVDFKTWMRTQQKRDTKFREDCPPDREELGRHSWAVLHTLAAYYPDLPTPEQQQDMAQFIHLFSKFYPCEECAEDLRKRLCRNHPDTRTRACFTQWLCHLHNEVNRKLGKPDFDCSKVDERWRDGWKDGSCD
HNF4A DNA FP = change in binding of human HNF4 alpha to DNA | P41235 | HNF4a-FITC DNA binding, fluorescence polarization, 1 h | activity change, % at 10 µM | 0.3% of 360,000 active; in the data active means activity change above about 30%, passing the limit was not always enough;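 further: controls were the assay level and a saturating level of protein; the project sought stronger binding though the title names inhibitors; some compounds called inactive have numbers as strong as hits; positive values seem to mean higher polarization but the record does not say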
Target sequence (P41235 whole entry, looked up): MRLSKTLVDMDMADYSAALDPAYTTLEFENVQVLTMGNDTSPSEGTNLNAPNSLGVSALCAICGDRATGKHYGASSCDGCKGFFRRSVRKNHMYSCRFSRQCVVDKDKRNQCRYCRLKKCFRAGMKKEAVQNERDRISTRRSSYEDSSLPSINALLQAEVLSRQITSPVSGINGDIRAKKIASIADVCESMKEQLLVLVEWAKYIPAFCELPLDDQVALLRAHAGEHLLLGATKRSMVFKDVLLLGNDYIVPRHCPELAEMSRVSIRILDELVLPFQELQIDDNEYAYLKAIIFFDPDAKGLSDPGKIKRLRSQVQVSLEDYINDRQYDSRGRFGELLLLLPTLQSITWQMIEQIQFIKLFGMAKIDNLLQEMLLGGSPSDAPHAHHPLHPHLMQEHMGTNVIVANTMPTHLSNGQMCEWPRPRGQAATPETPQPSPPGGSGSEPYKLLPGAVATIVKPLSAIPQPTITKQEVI
LANA-H2B inh = blocks KSHV LANA binding to histone H2A/H2B; AID 2629; inhibition, % (no concentration beside the values); 0.6% of 320,000 active; cell-free LANA-H2A/H2B peptide, fluorescence polarization; Q9QR71; in the data active means inhibition mostly above about 10%, no sharp cut-off; inactive means mostly below about 6.7%;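 further: stock transfer was 7.5 nL into about 10 µL; 0% = median of vehicle wells and 100% = median of positive control wells; one replicate is shown; the record names a cut of 25% in any replicate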
Vif A3G = inhibitors of Vif binding to APOBEC3G peptide, primary screen, biochemical, TR-FRET, GST-Vif 1-94, biotin-A3G peptide, dose response retest (AID 1117319); TR-FRET GST-Vif / biotin-A3G peptide binding; higher % means a stronger effect; test concentration not given here; strong numbers were not always called active; 0.57% of 260,000 active; one-dose inhibition, %; IC50 in µM for titrated hits;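 active means above the screen mean plus three standard deviations and confirmed in dose response; inconclusive means results disagree or hit not tested in dose response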;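 further: Vif residues 1-94 fused to GST binding biotinylated APOBEC3G peptide 110-148; 0% = full assay without inhibitor and 100% = GST in place of GST-Vif; retest series ran down from 100 µM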
Beta2AR agonist = human beta-2 adrenergic receptor agonism by FAP; 0.43% of 340,000 active; AID 504454; response, % (test concentration not listed); P07550; Am2.2-beta2AR cells, FAP receptor internalization, flow cytometry; reference of the scale not given here;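 active means response above a set limit, near 3 SD of response in nonfluorescent compounds, cut at about 42% in these data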;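 further: stock transfer was 100 nL into about 11 µL; a reference agonist was the positive control; negative values mostly stem from fluorescent compounds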
Target sequence (P07550 whole entry, looked up): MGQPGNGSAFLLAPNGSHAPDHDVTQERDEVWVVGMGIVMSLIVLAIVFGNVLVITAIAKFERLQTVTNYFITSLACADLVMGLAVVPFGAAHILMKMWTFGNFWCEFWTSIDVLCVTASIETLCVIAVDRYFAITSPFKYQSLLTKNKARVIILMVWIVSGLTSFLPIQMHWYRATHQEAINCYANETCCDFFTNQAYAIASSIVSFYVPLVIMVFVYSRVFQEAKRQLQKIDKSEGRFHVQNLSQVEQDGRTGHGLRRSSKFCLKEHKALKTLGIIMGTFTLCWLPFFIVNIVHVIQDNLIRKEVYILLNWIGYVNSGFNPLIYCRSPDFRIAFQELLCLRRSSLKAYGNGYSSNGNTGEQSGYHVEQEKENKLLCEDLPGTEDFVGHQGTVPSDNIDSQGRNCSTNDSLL
Calb FLC = C. albicans growth modulation with fluconazole | C. albicans CaCi-2 (fluconazole-resistant clinical isolate) + fluconazole, Alamar Blue growth, 48 h | AID 1979 | growth inhibition, % (concentration not given with the values) | 0.57% of 300,000 active;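 active means most replicates above 75%; inconclusive means exactly half above 75%; inactive means most below 75%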;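 further: all wells also contain fluconazole at 8 µg/ml as a sub-toxic cotreatment; 0% = median of DMSO wells and 100% = median of geldanamycin control wells; wells of about 8 µL received 7.5 nL stock; the first replicate is given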
RanGTP-Imp inh = inhibitors of RanGTP-importin-beta interaction, primary screen, biochemical, FRET, CFP-Ran, YFP-importin-beta, homogeneous | cell-free CFP-Ran/YFP-importin-beta FRET ratio | inhibition, % (no concentration beside the values) | 1.1% of 300,000 active | AID 2216;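 active means most replicates above 15%; inconclusive means exactly half above 15%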;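 further: 0% = DMSO wells and 100% = Ran loaded with GDP instead of GTP; wells of about 40 µL received 100 nL stock; the first replicate is given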
The depositor's hits bear a star; ? = inconclusive; . = no result given; & = joins results of further samples.

SMILES	ALR inh	HNF4A DNA FP	LANA-H2B inh	Vif A3G	Beta2AR agonist	Calb FLC	RanGTP-Imp inh
COc1ccc([N+](=O)[O-])cc1NC1CCN(C(=O)c2cccs2)CC1	17	-0.5	-2.5	.	1	-2	0.1
CC1CCCCC1Nc1nc2ccc(Cl)cc2n2cnnc12 (stereo not given)	-6	2.8	1.7	-7%	4	4	1.1
CCCCCn1c(=N)c(S(=O)(=O)c2ccc(Br)cc2)cc2c(=O)n3cccc(C)c3nc21	-11	-3.4	-3.6	-2%	-4	-5	?
O=C(Nc1c(C(=O)NCc2ccco2)cnn1-c1ccccc1)c1cccc(F)c1	65	2.3	1.4	5%	14	19	-3.8
CNC(=O)COC(=O)c1cc(SC)ccc1Cl	7	5.3	-6.0	20%	-1	9	2.4
O=S(=O)(C(=CNc1ccccc1)S(=O)(=O)c1ccccc1)c1ccccc1	1	0.0	-0.5	.	-10	22	1.4
COCCSc1ccccc1C(=O)NCC1CCCO1 (stereo not given)	-7	-1.7	1.5	?	1	-5	?
CSc1oc(-c2ccc(F)cc2)nc1S(=O)(=O)c1ccc(F)cc1	-7	0.5	1.0	-34%	9	12	-0.6
Cc1cccc(-c2nc(C)cc(=O)[nH]2)c1	4	0.6	10	0%	0	2	?
CCN(CC)CC(=O)Nc1ccc([N+](=O)[O-])cc1	-18	1.2	6.8	14%	-6	0	3.8
COc1ccccc1N1CCN(C(=O)CCCN2C(=O)c3cccc4cccc(c34)C2=O)CC1	-1	-6.0	-1.1	5%	10	6	-0.1
NC(=Nc1ccc(Cl)cc1)c1ccccc1	.	2.1	-0.6	22%	-3	-1	-2.6
CCC(Sc1ncccc1C(=O)OCCN1CCCC1=O)C(=O)NCc1ccco1 (stereo not given)	4	-0.5	1.4	6%	11	-2	0.4
S=c1[nH]nc(CCCc2n[nH]c(=S)o2)o1	62	2.3	-0.6	10%	4	-3	-1.5
COC(=O)[C@H](CCSC)NC(=O)Cn1cnc(C(=O)Nc2ccc(C)c(C)c2)n1	.	-1.2	.	2%	4	.	.
O=S1(=O)N=C(N(CCO)/N=C/c2ccc(Br)cc2)c2ccccc21	-2	2.9	-0.7	5%	0	5	3.0
C/C(=N\NC(=O)c1nnn(-c2nonc2N)c1CN1CCC(C)CC1)c1cccc(Br)c1	-13	-0.9	-0.2	.	-12	-1	1.5
CN(C)S(=O)(=O)c1ccc(N2CCCC2)c(C(=O)Nc2nccs2)c1	-4	4.2	0.7	.	-6	.	.
COc1ccc(N2CCOCC2)c(NC(=O)c2cccnc2)c1	4	0.9	3.9	.	-1	2	0.0
CC(=O)Nc1cccc(NC(=O)C2CCCN2C(=O)Nc2cccc(C)c2)c1 (stereo not given)	-12	-1.8	0.5	2%	-8	-13	1.8

Some of these compounds in order of their number in LANA-H2B inh, high to low.
SMILES	LANA-H2B inh
CSc1oc(-c2ccc(F)cc2)nc1S(=O)(=O)c1ccc(F)cc1	1.0
NC(=Nc1ccc(Cl)cc1)c1ccccc1	-0.6
CNC(=O)COC(=O)c1cc(SC)ccc1Cl	-6.0

Additional structures follow.
SMILES	ALR inh	HNF4A DNA FP	LANA-H2B inh	Vif A3G	Beta2AR agonist	Calb FLC	RanGTP-Imp inh
Cn1c(SCc2ccccc2)nnc1-c1ccc2c(c1)OCO2	5	-0.6	4.1	0%	-4	1	-1.0
Cc1ccc(N=C2NC(=O)CS2)cc1C	-16	4.9	4.6	.	-6	-1	-2.5
O=C(CCc1nnc(-c2ccccc2)o1)NCC1CCN(C2CCCC2)CC1	3	-0.6	-2.4	.	-4	3	-2.0
COc1ccc(OC)c(NC(=O)CN2CCC(C(=O)c3ccc(C)cc3)CC2)c1	-38	9.8	1.4	-4%	7	-9	4.9
c1ccc(Oc2cccc(CN3CCOCC3)c2)cc1	-6	-0.5	-2.1	-7%	-7	-10	-2.3
COc1ccc(S(=O)(=O)N2CCN(C(=O)c3cc4c(s3)CCCC4)CC2)cc1	1	2.0	2.2	-5%	1	.	.
CC(C)c1nc2sc3c(SCC(N)=O)ncnc3c2c2c1CCC2	.	1.8	3.1	-282%	8	54	-1.2
COc1ccc(-c2nn(C)c(=O)c3ccccc23)cc1NC(=O)COc1ccccc1	-14	-2.9	-0.3	-26%	-8	7	-0.8
COc1cc(C)c(Cl)cc1S(=O)(=O)N(C)C	.	-2.8	0.2	16%	0	4	0.9
CC1(C)CC(=O)C(C(=O)C2CCN(S(=O)(=O)c3ccccc3)CC2)C(=O)C1	-6	1.4	2.6	2%	-1	-7	-3.0
Cc1ccccc1OCCn1cc(C(=S)N2CCN(C)CC2)c2ccccc21	-24	4.0	0.6	15%	-1	27	-4.1
COc1ccc2c(c1)c1ncn(Cc3ccccn3)c(=O)c1n2C	-21	3.1	0.0	-8%	2	14	7.2
O=C(NC1CCN(Cc2ccccc2)CC1)c1ccccc1	.	-0.3	-3.5	-6%	2	-6	0.5
CC(C)CN(CC(C)C)C(=O)Nc1ccc(F)cc1F	-3	1.9	1.3	-3%	1	-1	?
Cc1cccc(-c2nnnn2-c2cccc(C)c2)c1	4	6.8	-0.7	-12%	-5	38	1.2
O=[N+]([O-])c1ccc(CN2CCN(c3ccc([N+](=O)[O-])cc3)CC2)cc1	-1	0.6	-1.1	3%	6	-1	5.8
N#C/C(=C(/O)COc1ccc(Br)cc1)c1nnc2n1CCCCC2	1	0.3	-3.1	5%	2	-11	3.4
Cc1cc(C)nc(NS(=O)(=O)c2ccc(NC(=O)Cc3ccc(F)cc3)cc2)n1	11	-3.4	-0.1	.	16	-1	-0.3
CN1C(=O)N(CC(=O)Nc2ccc(C(F)(F)F)cc2)C(=O)C12CCCCC2	.	6.1	.	-2%	1	.	.
CCOc1ccc(N2C(=O)CC(/C=C3/N(C)c4ccccc4C3(C)C)C2=O)cc1 (stereo not given)	9	4.2	-2.3	10%	-7	4	-5.4
COc1ccc(-c2cc(C(F)(F)F)n3nc(C(=O)NCCN4CCOCC4)cc3n2)cc1	.	1.9	-4.7	.	0	18	2.5
CC(=NO)C1CCC2C3CCC4=CC(=NO)CCC4(C)C3C(O)CC12C (stereo not given)	.	-1.3	.	-4%	9	.	.
COC(=O)C1CCN(C(=O)COC(=O)Cn2cnnn2)CC1	.	.	-1.1	-1%	.	-4	3.1
CC(C)N(Cc1nc(-c2ccccc2)no1)C(=O)c1ccc(Br)o1	-1	3.4	-2.5	-9%	-4	4	0.8
CCC(=O)N(c1nnc(SCC(=O)Nc2ccccc2Cl)s1)C1CC1	.	4.7	4.2	1%	3	.	.
Brc1ccccc1OCCCN1CCCC1	-3	1.1	-3.3	.	-5	-3	2.9
CC1CCCC(C)N1C(=O)COC(=O)CCC(=O)c1cccs1 (stereo not given)	-6	-1.7	-0.3	-10%	4	.	.
Cn1cc(Cl)c(C(=O)NNC(=S)NCc2ccco2)n1	14	-2.3	-6.5	0%	-1	-8	4.4
O=C(C1=C[C@@H](c2ccc(Br)cc2)C[C@@H](OCc2ccc(CO)cc2)O1)N1CCOCC1	-4	-1.8	0.0	2%	-2	14	0.7
CC1(C)Cc2c(C#N)c(N3CCN(C(=O)c4ccccc4)CC3)nc(-c3ccco3)c2CS1	9	1.0	5.6	?	-2	.	.
CC1CCCC(NC(=O)c2cn(C)c3ccc(S(=O)(=O)N4CCCC4)cc3c2=O)C1C (stereo not given)	-1	.	-2.1	-10%	.	25	0.7
CCOC(=O)c1cnc2c(C)cc(C)cc2c1Nc1ccc(S(=O)(=O)Nc2ncccn2)cc1	0	-1.3	0.6	-4%	38	7	-0.3
O=C(CNC(=O)c1ccco1)NCCCc1ccccc1	-5	0.3	-1.5	-2%	-8	-4	-1.2
O=C(O)c1ccccc1C(=O)NCC(O)COc1ccc(Cl)cc1 (stereo not given)	3	5.7	-0.1	.	5	-9	1.5
NNc1ncnc2c1cnn2-c1ccccc1	53	-0.8	26*	?	-7	-9	-1.8
C=CS(=O)c1sc(Cl)c(N2CCOCC2)c1[N+](=O)[O-] (stereo not given)	.	.	.	?	.	1	-2.4
CCOC(=O)c1ccc(Oc2nc(OC)cc(OC)n2)cc1	-1	4.1	0.8	.	1	14	2.4
CCOC(=O)C1(C)NC(c2ccc(N(C)C)cc2)C2C(=O)N(c3ccc(OC)cc3)C(=O)C21 (stereo not given)	22	2.5	0.2	3%	4	-16	5.3
COC(=O)c1cc(Br)c(=O)n(CCc2ccc(O)cc2)c1	90*	0.9	-12	-6%	-5	21	-3.6
COc1ccc(S(=O)(=O)N2CCN(c3ccccn3)CC2)cc1[N+](=O)[O-]	-1	0.9	2.3	-7%	-10	-1	-2.5

Reprinted from the part before: 2 entries, then new ones.
SMILES	ALR inh	HNF4A DNA FP	LANA-H2B inh	Vif A3G	Beta2AR agonist	Calb FLC	RanGTP-Imp inh
COC(=O)c1cc(Br)c(=O)n(CCc2ccc(O)cc2)c1	90*	0.9	-12	-6%	-5	21	-3.6
COc1ccc(S(=O)(=O)N2CCN(c3ccccn3)CC2)cc1[N+](=O)[O-]	-1	0.9	2.3	-7%	-10	-1	-2.5
O=C(NC1CCCCC1)C1CC(=O)N(Cc2ccccc2)C1 (stereo not given)	-1	-1.9	0.3	12%	3	-10	1.9
N=C1C(c2nc(-c3cccc([N+](=O)[O-])c3)cs2)=C(O)CN1NC(=O)c1ccco1	2	2.7	-2.3	.	2	24	-1.9
CCOC(=O)C1(CCOC)CCN(Cc2cc3ccccc3s2)CC1	.	1.3	1.1	7%	-3	-3	0.2
O=C(NC(=S)Nc1cccc(NC(=O)c2ccccc2)c1)c1cccc([N+](=O)[O-])c1	38	1.1	-1.7	-6%	-11	4	8.4
C/C(CC(C)C)=N\NS(=O)(=O)c1ccc(C)c([N+](=O)[O-])c1	-4	1.4	1.8	23%	-2	-6	0.0
COc1ccccc1N1CCN(C(=O)CN2C(=O)c3ccccc3S2(=O)=O)CC1	.	3.8	2.6	2%	-6	-1	1.3
CCOc1ccc(NC(=O)c2ccccc2NC(=O)CNC2CCCC(C)C2C)cc1 (stereo not given)	.	1.5	2.9	.	-4	.	.
COc1ccc(C(=O)N2CCN(C(C)=O)CC2)cc1S(=O)(=O)N1CCOCC1	-6	9.3	-1.4	.	5	-6	8.1
Cc1c(C)c2ccc(OCC(=O)Nc3ccc(S(N)(=O)=O)cc3)c(C)c2oc1=O	4	2.8	-3.9	.	0	8	0.4
FC(F)(F)c1ccc(Nc2nnnc3ccccc23)cc1	-38	-5.7	-0.7	.	-2	-6	-1.2
CCc1c(C)sc(NC(=O)OC)c1C(N)=O	48	-0.1	-2.2	-10%	-1	-5	-0.7
CCCOc1ccc(C(=O)NC(=S)Nc2nc3ccccc3s2)cc1	-2	0.2	4.0	-4%	2	3	1.9
CC(C)CCNC(=O)C(C)N(Cc1ccc(F)cc1)C(=O)c1ccc(CN2CCCCC2)o1 (stereo not given)	-1	1.4	-5.3	-1%&-9%	8	-17	0.5
Cc1ccc(C(=O)c2cc([N+](=O)[O-])ccc2N2CCCCC2)c(C)c1	-7	7.5	-5.1	-2%	61*	-1	3.4

Record cards, from the list above:
Listed for C/C(CC(C)C)=N\NS(=O)(=O)c1ccc(C)c([N+](=O)[O-])c1 : ALR inh: -4; HNF4A DNA FP: 1.4; LANA-H2B inh: 1.8; Vif A3G: 23%; Beta2AR agonist: -2; Calb FLC: -6; RanGTP-Imp inh: 0.0
Listed for O=C(NC1CCCCC1)C1CC(=O)N(Cc2ccccc2)C1 (stereo not given) : ALR inh: -1; HNF4A DNA FP: -1.9; LANA-H2B inh: 0.3; Vif A3G: 12%; Beta2AR agonist: 3; Calb FLC: -10; RanGTP-Imp inh: 1.9
Listed for COc1ccc(C(=O)N2CCN(C(C)=O)CC2)cc1S(=O)(=O)N1CCOCC1 : ALR inh: -6; HNF4A DNA FP: 9.3; LANA-H2B inh: -1.4; Vif A3G: .; Beta2AR agonist: 5; Calb FLC: -6; RanGTP-Imp inh: 8.1

Source: PubChem (several laboratories)
